Compound activity (PubChem BioAssay)
miR-21 reporter: qHTS Assay for Modulators of miRNAs and/orActivators of miR-21; HeLa miR-21 FLuc reporter, luciferase, 48 h; Potency, µM (titrated, usually from 38.3 µM), for inactives: at the top dose reporter change, positive = more light; 340,000 tested, under 10 active; active = well fitted rising curve with a large enough effect; inconclusive = small, poorly fitted or top-dose-only effect; inactive = no such curve, though single readings can be large or run the other way;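 note: % of control where 0% means no effect; miR-21 action dims this reporter so a rising signal means less miR-21 action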
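HeLa miR-21-FLuc reporter line, endogenous miR-21; 2000 cells/well in DMEM/10% FBS; compound titration up to ~40uM final, 48 h, 37 degree Celsius; luciferase detection reagent, 15 min lysis, CCD luminescence.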
Rango release inh: qHTS Assay for Inhibitors of RanGTP induced Rango (Ran-regulated importin-beta cargo) - Importin beta complex dissociation; Potency, µM (top dose mostly 46.1 µM), for inactives: at the top dose activity change, negative = inhibition; AID 540253, 2011; Snurportin-1 (Homo sapiens) + GTP-binding nuclear protein Ran (Homo sapiens) + Importin …; 340,000 tested, 0.071% active; Biochemical FRET Rango-importin beta, RanGTP-induced dissociation; active means falling FRET ratio curve, often poorly fitted, with flat reads before Ran was added; inconclusive means other falling curves, or compound fluorescence or quenching; inactive means flat or rising ratio curve;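 note: potency is the fitted concentration of half-maximal effect; % of control where 0% means no effect; nearly all actives have a fitted effect of over 45% in size; -100% = wells without RanGTP and RCC1; the record marks most hits as doubtful in a second field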
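Two FRET readings bracket the reaction: one 5 min after compound meets Rango–importin beta, another 45 min after RanGTP-RCC1 (0.6 uM Ran, 0.2 uM RCC1, 2 mM GTP) is added. Only the second defines inhibition.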
Rango complex inh: qHTS Assay for Inhibitors of Rango (Ran-regulated importin-beta cargo) - Importin beta complex formation; Importin subunit beta-1 (Homo sapiens), Q14974; Potency, µM (top dose mostly 92.2 µM), inactives show at the highest dose inhibition of complex formation; Rango CFP/YFP FRET sensor + importin beta, 45 min; 340,000 tested, 0.031% active; active = rising FRET ratio curve, often small or poorly fitted; inconclusive = mostly compound fluorescence or quenching in the first reads; inactive = flat curves in all reads;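 note: potency is the fitted concentration of half-maximal effect; 0% = DMSO wells and 100% = buffer wells lacking importin beta; nearly all actives have a fitted effect of over 15% in size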
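FRET biosensor (snurportin 1 IBB flanked by EYFP and cerulean), 50 nM, with compound 5 min, then 0.125 microM importin beta in PBS, 1 mM DTT, 0.02% Tween-20, 0.1% BSA. CFP/YFP ratio read after 45 min at room temperature; pre-read flags interference.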
GLA inh pH 4.5: qHTS Assay for Inhibitors of Human alpha-Galactosidase at pH 4.5 | purified enzyme, 4-MU-alpha-Gal fluorescence, pH 4.5 | Alpha-galactosidase A (Homo sapiens), P06280 | 230,000 tested, under 10 active | activity change, negative = inhibition, % at 105 µM; inconclusive = small, poorly fitted or top-dose-only inhibition, or a rising curve; inactive = flat fitted curve, though single readings scatter; no compound was filed as active;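 note: 0% = full activity with enzyme and -100% = basal without enzyme; dose as in the result columns while the protocol names 77 µM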
Target sequence (P06280 whole entry, looked up): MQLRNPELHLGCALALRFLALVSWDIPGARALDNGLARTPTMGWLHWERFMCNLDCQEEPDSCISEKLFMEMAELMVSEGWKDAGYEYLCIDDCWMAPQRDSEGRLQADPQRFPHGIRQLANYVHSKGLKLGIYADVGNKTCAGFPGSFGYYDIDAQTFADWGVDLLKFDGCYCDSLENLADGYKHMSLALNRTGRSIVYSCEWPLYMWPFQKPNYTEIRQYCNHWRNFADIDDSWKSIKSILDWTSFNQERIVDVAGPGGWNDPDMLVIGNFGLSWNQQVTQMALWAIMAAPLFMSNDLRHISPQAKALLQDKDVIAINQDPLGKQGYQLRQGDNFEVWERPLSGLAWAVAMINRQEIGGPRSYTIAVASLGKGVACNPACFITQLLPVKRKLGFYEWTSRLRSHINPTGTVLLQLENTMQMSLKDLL
Starred values were filed as active, the others as inactive; ? = inconclusive; . = not tested or not shown; & = joins results of further samples. These rows are one share of the data; count on the stated rates, not on these rows.

| SMILES | miR-21 reporter | Rango release inh | Rango complex inh | GLA inh pH 4.5 |
| --- | --- | --- | --- | --- |
| O=C1CCN(C2CCN(Cc3nc(Cc4ccccc4F)no3)CC2)CCN1 | 1% | -2% | -3.5% | 8 |
| CC1C(C(=O)Nc2ccccc2)CCCC1(C)C(=O)O (configuration not stated) | -5% | -11% | 1.5% | 3 |
| CN(C)N=Nc1nc[nH]c1C(N)=O | . | -17% | 1.3% | . |
| CCOC(=O)C1=C(O)/C(=C\c2cc(C)n(-c3ccc(F)cc3)c2C)N=C1C | -6% | ? | ? | 2 |
| COc1ccc(-c2ccc(-c3noc(C)n3)c(OC)n2)cc1 | -30% | -7% | ? | 5 |
| O=C(Cc1ccccc1[N+](=O)[O-])NCc1ccc(Cl)cc1Cl | -59% | -7% | -3.7% | -2 |
| CCOC(=O)C(NC(=O)Nc1cccc(C)n1)(OCC(F)(F)F)C(F)(F)F (configuration not stated) | -12% | 16% | 4.1% | 3 |
| CCOc1ccc(N2CC(C(=O)N3CCCCC3)CC2=O)cc1 (configuration not stated) | 0% | -1% | -1.7% | . |
| Oc1ccccc1CNc1cccc2cccnc12 | -67% | -17% | -1.3% | -7 |
| CSc1nc(-c2ccc(Cl)cc2)nn1S(=O)(=O)c1ccc(Cl)cc1 | -22% | 18% | -3.1% | 9 |
| COc1ccc2c(c1OC)C(=O)N1C2SC(C)(C)[C@H]1C(=O)NC1CC1 (some centres not stated) | 1% | 1% | 0.2% | . |
| O=C(NCCc1ccccc1)c1cccc(NC(=O)C2CCC2)c1 | . | -2% | -2.9% | . |
| Fc1cc(F)nc(NCc2ccccc2)n1 | 5% | 0% | -0.9% | . |
| Cc1cc(NC(=O)CSc2ncccc2C(=O)O)no1 | ? | -13% | -1.4% | 6 |
| CC1CCCN(S(=O)(=O)c2ccc3c(c2)c(=O)nc2ccccn23)C1 (configuration not stated) | -1%&-2% | 9% | 9.8% | . |
| O=C(CCNC(=O)c1ccccc1)Nc1ccc(S(=O)(=O)Nc2ncccn2)cc1 | . | 14% | 0.4% | . |
| COCCCN(C(=O)c1ccco1)c1nc(-c2cc(OC)ccc2OC)cs1 | -14% | -17% | -5.1% | -8 |
| CC(C)C(=O)Nc1cccc(C(=O)OCC(=O)c2ccc(Cl)cc2Cl)c1 | -6% | 9% | -0.4% | -10 |
| O=C(O)CC12CC3CC(C1)CC(n1cncn1)(C3)C2 | -2% | -9% | -0.8% | 4 |
| O=C(O)CCC(=O)Nc1nc(-c2ccccc2)cs1 | 1% | 10% | 0.4% | 1 |
| O=C(Oc1cccc(-n2cnnn2)c1)c1ccccc1Cl | -2% | -6% | -4.9% | -2 |
| S=c1[nH]nc(-c2ccccc2)n1C1C=CCCC1 (configuration not stated) | -1% | 11% | -1.0% | 7 |
| COC(=O)c1cc(=O)n(Cc2cccs2)c(=NCc2cccs2)s1 | -2% | -13% | -0.3% | -4 |
| C=CCOc1ccccc1C1NC(=O)NC(C)=C1C(=O)NCc1ccccc1 (configuration not stated) | -2% | -10% | 7.0% | -6 |
| CSc1ccc(C(=O)C2CCCN(C(=O)c3cccc(N4CCOCC4)c3)C2)cc1 (configuration not stated) | -36% | 24% | 0.1% | -1 |
| COc1ccc(NC(=O)c2ccc(COc3ccccc3Br)o2)c(OC)c1 | . | 6% | 0.5% | . |
| CNC(=O)c1[nH]cnc1C(=O)N[C@@H](C)C(=O)OCc1ccccc1 | 19% | -1% | 0.3% | 2 |
| COc1ccc(Cc2nc3ccc(C(=O)NC(C)Cc4ncccc4C)cc3o2)cc1OC (configuration not stated) | 18% | 7% | 0.5% | . |
| CC(C)NC(=O)N(C)C[C@H]1Oc2c(NS(=O)(=O)c3cn(C)cn3)cccc2C(=O)N([C@H](C)CO)C[C@@H]1C | . | 23% | -4.4% | . |
| Cc1ccc(C)n1-c1c(C(=O)NN)cnn1-c1ccccc1 | 19% | 3% | ? | -7 |
| CCc1cc(=O)oc2cc(OC(=O)CN3C(=O)NC4(CCCC4)C3=O)ccc12 | -5% | ? | ? | . |
| O=C(COc1ccccc1F)Nc1nnc(C2CCCC2)s1 | -35% | -21% | 0.4% | . |
| Clc1cc(Cl)c(OCc2nc(-c3ccccn3)no2)cc1Cl | -63% | -4% | 1.2% | -13 |
| CCCCOc1ccc(C(=O)N/C(=C/C=C/c2ccccc2)C(=O)O)cc1 | -13% | 3% | 5.0% | 4 |
| CN1C[C@@H]2C(c3ccc(C(F)(F)F)cc3)C3(c4cccnc4)CC2(C3)[C@H]1c1ccccc1 (some centres not stated) | 0% | 1% | 1.0% | -9&-10 |
| NS(=O)(=O)c1ccc(CCNC(=O)CNC(=O)Cc2cccc3ccccc23)cc1 | -2% | -16% | 0.5% | . |
| COc1ccccc1NC(=O)c1ccc(NC(=O)CN2C(=O)CN(C)C2=O)cc1 | 6% | -9% | -1.2% | 8 |
| CCC(=O)N1CCN(c2ccccc2NC(=O)COc2cc(C)ccc2C(C)C)CC1 | ? | -2% | -1.1% | -9 |
| Cc1ccc2cc(CN(CCCN(C)C)C(=S)NCc3ccccc3)c(=O)[nH]c2c1C | -2% | 7% | 3.1% | 2 |
| Cn1c(CNC(=O)c2ccc(F)cc2)cc2ccccc21 | -8% | 0% | -6.3% | . |
| Cc1ccc2ccccc2[n+]1CCCS(=O)(=O)[O-] | -3% | 6% | 0.0% | -2 |
| O=C(Nc1ccc2nc3n(c(=O)c2c1)CCCCC3)c1c(F)ccc([N+](=O)[O-])c1F | ? | -1% | 0.4% | . |
| CC(C)CCOc1ccc(C(=O)NCCC(=O)N2CCOCC2)cc1 | -36% | 5% | -0.9% | 0 |
| CCOC(=O)C(CC)/C(C)=N\NC(=O)c1cccc(C)c1 (configuration not stated) | -27% | 1% | 1.0% | -5 |
| CC(=O)c1cccc(NC(=O)COC(=O)CCC(=O)c2ccc(F)cc2)c1 | . | 5% | -0.5% | . |
| CCOC(=O)c1[nH]c2ccc(OC)cc2c1NC(=S)N1CCN(c2ccccn2)CC1 | 1% | -1% | 0.6% | 3 |
| O=C(OCc1ccc(Cl)cc1Cl)c1cccnc1Cl | 5% | 2% | -0.3% | -3 |
| CN(C)CCCOC(=O)c1ccc(Cl)cc1Cl | -9% | 18% | 0.5% | 6 |
| O=C(c1ccco1)N1C(=O)c2cccc3c(S(=O)(=O)N4CCCC4)ccc1c23 | -2% | -3% | -0.6% | 10 |
| O=C(Nc1nc2c(s1)CCc1ccccc1-2)c1cccs1 | -15% | -26% | ? | -1 |

Further structures
| SMILES | miR-21 reporter | Rango release inh | Rango complex inh | GLA inh pH 4.5 |
| --- | --- | --- | --- | --- |
| O=C(/C=C/c1ccc(F)cc1)c1cc(Br)ccc1O | -19% | -20% | ? | 6 |
| Cc1ccc(-n2c(SCC(=O)N3CCOCC3)nc(O)c(Cc3ccccc3)c2=O)cc1 | -1% | 11% | 0.2% | . |
| COc1ccccc1C(CNC(=O)COc1cc(C)ccc1Cl)N1CCCC1 (configuration not stated) | . | 1% | 2.3% | . |
| Cc1ccc(NC(=O)CSCC(=O)NC2=NCCS2)cc1 | . | -4% | 0.1% | . |
| Cn1c(=O)c2c(nc(Br)n2Cc2ccccc2Cl)n(C)c1=O | -1% | ? | -2.2% | -7 |
| O=C(COc1cccc(C(F)(F)F)c1)NCC(c1cccs1)N1CCOCC1 (configuration not stated) | . | -11% | 0.1% | . |
| COc1cccc(NC(=S)NCc2ccccn2)c1 | -37% | 9% | -2.3% | 15 |
| COc1ccccc1N1CCN(C(=O)c2cccc(S(=O)(=O)N3c4ccccc4CC3C)c2)CC1 (configuration not stated) | . | 6% | -0.9% | . |
| O=C1CC2(CCCC2)Oc2ccc(Cl)cc21 | . | -15% | -1.6% | . |
| COc1ccc(S(=O)(=O)NC2CCCCC2)c(C)c1C | -2% | 12% | 0.3% | -2 |
| O=C(NCCc1c[nH]c2ccccc12)c1c(Cl)nc2sccn12 | -39% | 15% | 8.1% | -7 |
| Cc1sc2ncnc(NCCCN3CCCC3=O)c2c1C | -11% | 1% | -3.1% | 0 |
| COc1ccc(N2C(C)=CS/C2=C(/C#N)c2nnc(N3CCOCC3)n2-c2ccccc2)cc1 | -2% | -12% | 1.1% | 3 |
| CC(=O)NC1(C(F)(F)F)C(=O)Nc2c1c(=O)[nH]c(=O)n2CC(C)C (configuration not stated) | 0% | -4% | -1.4% | 1 |
| COc1cc2c(cc1OC)CN(Cc1cc(OC)c3c(c1)OCO3)CC2 | 4% | 1% | 3.8% | . |
| CC1(C)CC(=O)C(CS(=O)(=O)c2ccccc2)=C(O)C1 | 0% | 4% | ? | . |
| c1cncc(CNc2c3c(nc4nnnn24)CCCC3)c1 | -7% | -4% | 1.9% | 11 |
| CCOC(=O)c1nnn(-c2nonc2N)c1CSc1ccc(C)cc1 | 2% | 4% | -4.5% | 0 |
| COc1ccc(C(=O)CSc2nc(N)nc(SC)c2C#N)cc1 | -4% | -11% | -4.2% | 1 |
| Nc1cc(=O)[nH]c(SCC(=O)N2CCCCC2)n1 | 2% | 0% | 1.6% | -5 |
| CCN(CC)C(=O)C1CCCN(C(=S)Nc2cccc3ccccc23)C1 (configuration not stated) | 2% | -2% | ? | -6 |
| Cc1nc2ccccc2c(=O)n1/N=C/c1ccccn1 | -32% | 2% | 2.2% | -2 |
| COc1ccc(C2CC(c3ccccc3)=NN2S(=O)(=O)c2ccccc2)cc1 (configuration not stated) | -11% | -29% | -7.1% | -3 |
| COc1ccc(-n2c(O)c(/C=N/NS(=O)(=O)c3cccc([N+](=O)[O-])c3)c3ccccc3c2=O)cc1OC | -15% | ? | ? | 6 |
| COc1ccccc1CNC(=O)COC(=O)c1ccc(C)c(S(=O)(=O)N2CCOCC2)c1 | . | 26% | -1.6% | . |

A section from the list above:
| SMILES | miR-21 reporter | Rango release inh | Rango complex inh | GLA inh pH 4.5 |
| --- | --- | --- | --- | --- |
| COc1ccccc1N1CCN(C(=O)c2cccc(S(=O)(=O)N3c4ccccc4CC3C)c2)CC1 (configuration not stated) | . | 6% | -0.9% | . |
| O=C1CC2(CCCC2)Oc2ccc(Cl)cc21 | . | -15% | -1.6% | . |
| COc1ccc(S(=O)(=O)NC2CCCCC2)c(C)c1C | -2% | 12% | 0.3% | -2 |
| O=C(NCCc1c[nH]c2ccccc12)c1c(Cl)nc2sccn12 | -39% | 15% | 8.1% | -7 |

Carrying on.
| SMILES | miR-21 reporter | Rango release inh | Rango complex inh | GLA inh pH 4.5 |
| --- | --- | --- | --- | --- |
| Cc1ccc(CN2CCCC(C(=O)N3CCCC3)C2)cc1 (configuration not stated) | -2% | -5% | -0.1% | . |
| CN(N=Nc1cccc([N+](=O)[O-])c1)c1cccc([N+](=O)[O-])c1 | -10% | 6% | 3.1% | -1 |
| Cn1ncc(Cl)c1C(=O)Nc1nc2ccc(Cl)cc2s1 | -51% | 1% | 2.1% | -8 |
| CN1CCN(S(=O)(=O)c2cccc(C(=O)Oc3ccc(Br)cc3F)c2)CC1 | -3% | 9% | -0.7% | . |
| Cc1ccc(S(=O)(=O)N2CCCCC2)cc1NC(=O)C1CCCO1 (configuration not stated) | -6% | -4% | 0.0% | 1 |
| COC(=O)[C@]1(C)N[C@H](CN(C)C(=O)Nc2ccccc2)[C@@H]2C(=O)N(C)C(=O)[C@@H]21 | . | 11% | 1.4% | . |
| CCN(CC)S(=O)(=O)c1ccc(N2CC(C(=O)NCCC3=CCCCC3)CC2=O)cc1 (configuration not stated) | . | -7% | -2.1% | . |
| CCOc1ccc(CCNC(=O)COC(=O)Cc2c[nH]c3ccccc23)cc1OCC | . | -6% | 0.5% | . |
| COc1ccccc1/C=C/C(=O)OC(C)CN1CCCCC1 (configuration not stated) | -2% | 0% | 1.6% | . |
| CCOC(=O)C1C(=O)CC(O)(c2ccccc2)CC1c1ccccc1 (configuration not stated) | 13% | 0% | 4.2% | -6 |
